Rce1 inhib – yeast Rce1p protease inhibitors, primary screen, biochemical, fluorescence, cell-free homogeneous | CAAX prenyl protease 2 (Saccharomyces cerevisiae (strain ATCC 204508 / S288c)), Q03530 | yeast membranes, quenched prenylated peptide cleavage fluorescence | calls only | hit rate 0.27% among 290,000 | AID 2563, 2010;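 active means fall in fluorescence gain of 50% or more versus controls, with final raw signal at or below 3038400; inconclusive means same 50% fall but final raw signal above 3038400; inactive means fall in fluorescence gain under 50%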;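 further: plate controls were neutral control wells for no effect and wells lacking membranes for full effect; tested at 10 µM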
Target sequence (Q03530 whole entry, looked up): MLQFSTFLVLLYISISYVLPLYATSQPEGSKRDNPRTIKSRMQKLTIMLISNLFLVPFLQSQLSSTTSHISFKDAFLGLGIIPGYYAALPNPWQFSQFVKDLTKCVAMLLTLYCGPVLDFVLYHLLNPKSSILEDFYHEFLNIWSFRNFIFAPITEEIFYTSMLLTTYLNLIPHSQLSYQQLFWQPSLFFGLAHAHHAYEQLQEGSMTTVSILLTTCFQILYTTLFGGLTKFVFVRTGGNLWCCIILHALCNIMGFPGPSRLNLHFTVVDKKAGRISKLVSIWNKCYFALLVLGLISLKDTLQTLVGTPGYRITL
MT1-MMP act inh – blockers of MT1-MMP proenzyme processing, primary screen, HT1080 RFP-PRO-GFP cells, GFP/RFP fluorescence | GFP/RFP ratio fluorescence, overnight; percent of plate control window, DMSO zero | GFP/RFP ratio change, % at 20 µM | hit rate 0.061% among 360,000;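 active means GFP/RFP ratio change of at least 30% with cell ATP level not reduced by more than half and red fluorescence within 50% of control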; further: strong numbers were not always called active
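Test system: HT1080 cells expressing an RFP-PRO-GFP fluorescent reporter construct / Compound dosing: single-point 20 µM compound, 1% DMSO / Schedule: cells overnight before dosing, compound overnight, 37 °C, 5% CO2 / Evaluation: GFP/RFP fluorescence ratio / Control set: DMSO and RFP-L50D-GFP cell wells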
CSC inhib – cancer stem cell viability inhibitors, primary screen, luminescence; cancer stem cell-like cells viability; inhibition, % at 7.5 µM; hit rate 1.1% among 300,000; AID 2717, 2010;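 active means mean at 75% or more and at least half the replicates too; inconclusive means mean and replicates disagree; tested in HMLE shEcad cells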;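 further: 0% = median of negative and 100% = median of positive control wells; the first replicate is given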
Env fusion inh – inhibitors of HIV-1 Env-driven cell-cell fusion, primary screen, HeLa-JRFL effector, CEM21 target cells, luciferase; inhibition, % at 12.3 µM; hit rate 1.1% among 360,000; AID 651610, 2012;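 active means mean replicate inhibition score of at least 50 and every replicate individually at or above 50; inconclusive means only one of the two criteria met; inactive means mean below 50 and not all replicates reaching 50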;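 further: 0% = plate neutral controls and 100% = maraviroc near 300 nM; one replicate is shown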
PABP FP inh – PABP poly(A) RNA binding inhibitors, primary screen, biochemical, fluorescence polarization, uHTS; hit rate 1% among 290,000; inhibition, % at 35 µM; Polyadenylate-binding protein 1 (Homo sapiens), P11940;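 active means 50% or more with normal probe brightness, or confirmed in later tests; inconclusive means above 50% with abnormal brightness, or retests that disagree; inactive means below 50% or failed in later tests; about a fifth of its hits are not listed in these tables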;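 further: calls also rest on retests at 20 µM and on dose response follow-up; controls were probe without protein and protein plus probe with vehicle; some compounds called inactive have numbers as strong as hits; many hits fall short of the cut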
UUG fidelity – modulators of yeast start codon fidelity, primary screen, whole organism, S. cerevisiae, single point, plate reader | S. cerevisiae UUG-firefly luciferase reporter, luminescence/redox ratio | activity score, % at 18.7 µM | hit rate 0.13% among 350,000;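 active means replicate mean at a twofold rise or more, about +100% in these data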;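 further: firefly luciferase made from a UUG start codon reports start codon fidelity; reporter light over untreated wells divided by growth signal over untreated wells; some hits fall short of that in this replicate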
eIF4H inh – human eIF4H binding inhibitors, primary screen, translation initiation inhibitor project, biochemical, uHTS, fluorescence polarization; eIF4H fluorescence polarization binding assay; inhibition, % at 35 µM; hit rate 0.94% among 290,000; AID 2012, 2009;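 active means 50% or more with normal probe brightness, or confirmed in later tests; inconclusive means above 50% with abnormal brightness, or retests that disagree; inactive means below 50% or failed in later tests; about a fifth of its hits are not listed in these tables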;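 further: calls also rest on retests at 20 µM and on dose response follow-up; 0% = protein and probe with vehicle and 100% = probe without protein; strong numbers were not always called active; many hits fall short of the cut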
eIF4H inh retest – recorded beside eIF4H inh, whose call it bears; inhibition, %; compound at 20 µM; confirmation average;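 mean of two retest wells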
PABP FP inh retest – also measured in PABP FP inh; calls as there; inhibition, %; compound at 20 µM; confirmation repeats;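 mean of two retest wells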
MT1-MMP act inh RFP – recorded beside MT1-MMP act inh, whose call it bears; RFP signal change, %; measured here: RFP expression control read;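 0 = vehicle wells; hits needed this value within 50% of zero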
An asterisk follows results filed as active; i = inactive; u = inconclusive; x = no result given; + = active, no number; [ ] = another dose, or the depositor's remark.

SMILES | Rce1 inhib | MT1-MMP act inh | MT1-MMP act inh RFP | CSC inhib | Env fusion inh | PABP FP inh | UUG fidelity | eIF4H inh | others
O=C(COC(=O)c1c(F)cccc1F)NCc1cccs1 | x | 2 | 1 | 9 | 11 | x | -10 | x
CCCCCCC(=O)NNC(=O)c1c(O)c2ccccc2n(CC)c1=O | i | 9 | 0 | 10 | 8 | 4 | x | 8
COc1ccc(CCNC(=O)C2CCCN2C(=O)Nc2ccc(F)cc2)cc1OC (stereo unspecified) | i | 1 | 1 | 6 | -33 | 0 | -13 | 25
O=C(c1ccc(Cl)c(Cl)c1)N1CCC(=O)N(C(CO)Cc2ccccc2)CC1 (stereo unspecified) | i | -2 | -2 | 3 | 4 | x | 22 | x
O=C(Nc1ccc(C2SCCS2)cc1)c1ccccc1 | i | 3 | -2 | 2 | -110 | -13 | -11 | -1
Fc1ccc2nc3[nH]c4ccccc4c3nc2c1 | i | -5 | -1 | 25 | i | -4 | -4 | -3
COc1cc(/C=C(\NC(C)=O)C(=O)Nc2cccc(O)c2)ccc1OC(C)=O | i | 3 | 6 | 2 | x | 5 | x | 5
C=CCn1c(C(CCCC)CC(O)COCC(C)C)n[nH]c1=S (stereo unspecified) | i | -1 | 2 | x | 10 | -7 | -8 | -8
CCCn1nnnc1NCc1ccccc1C | i | 2 | -1 | -10 | -10 | 5 | -10 | 0
COc1ccc(CNC(=O)CN(c2ccc(C(C)C)cc2)S(=O)(=O)c2c(C)noc2C)cc1 | i | 4 | -1 | 12 | 1 | 5 | -11 | -5
COc1cnc(-c2ccccn2)nc1Sc1c(Cl)cccc1Cl | i | 1 | -3 | -24 | 9 | -10 | -40 | 2
COc1ccc(N2C(=O)CCC(C(=O)N3CCOCC3)C2c2ccc(F)cc2)cc1 (stereo unspecified) | i | -2 | 4 | -21 | -18 | -2 | -35 | 3
N#C/C(=C/c1cccs1)c1ccccn1 | i | 1 | 1 | -9 | -30 | 3 | x | 3
O=S1(=O)C=C(Sc2nc3cc(Cl)ccc3o2)c2ccccc21 | i | -12 | -7 | 9 | x | -10 | -20 | 1
O=C(CSc1ccccc1)N1CCCC(N2CCN(c3cccc(Cl)c3)CC2)C1 (stereo unspecified) | i | 6 | 1 | 15 | -19 | 7 | -6 | 4
CN(C)S(=O)(=O)c1ccc(N2CCCC2)c(C(=O)NC(c2ccccc2)c2ccccc2)c1 | i | -3 | -8 | 6 | u | 4 | -1 | 4
Cc1cccc(OCC(=O)N(Cc2ccc(F)cc2)C2CCS(=O)(=O)C2)c1C (stereo unspecified) | i | 0 | -2 | -10 | 12 | 7 | -12 | 0
COc1cc(OC)c(C2=NOC(C(=O)NCc3cccnc3)C2)cc1Cl (stereo unspecified) | i | -2 | 1 | x | 0 | -10 | -10 | -7
CCCCc1noc(-c2c(-c3ccccc3Cl)noc2C)n1 | i | -2 | -4 | 5 | -5 | -10 | x | -5
Cc1nc2ccccc2c2nc(NC(=O)C(F)(F)F)nn12 | i | -1 | 4 | -4 | 2 | 10 | 3 | 5
Cc1cccc(N(C(=O)Cn2nnc(-c3ccc(C)o3)n2)C(C(=O)NC2CCCC2)c2ccncc2)c1 (stereo unspecified) | i | 2 | 4 | -11 | -28 | 11 | -9 | -4
COc1ccc(N/N=C(/C)c2cnnc(-c3ccccc3)n2)cc1 | i | -5 | -1 | 10 | -50 | 4 | x | 16
C=C(C)CSc1nc2sc3c(c2c(=O)n1-c1ccc(C)cc1)CCN(C)C3 | i | -2 | -4 | x | -5 | -12 | 0 | 0
COc1cc2oc(=O)cc(CN(Cc3ccccc3)Cc3ccccc3)c2cc1Cl | x | 4 | -6 | x | 3 | x | -15 | x
O=C1NC(c2ccc(Cl)cc2)Oc2ccccc21 (stereo unspecified) | i | x | x | -10 | 1 | -1 | -24 | 2
CC(=O)Nc1ccc(S(=O)(=O)NC2=C(N3CCN(C)CC3)C(=O)c3ccccc3C2=O)cc1 | i | 6 | 5 | 7 | 3 | 14 | 7 | -5
Cn1cc(/C=N/NC(=O)c2ccccc2O)c2ccccc21 | i | 5 | 1 | -9 | -20 | 12 | -15 | -4
Cc1ccc(CNC(=O)C23CN(Cc4ccccc4)CC2C(c2cccc([N+](=O)[O-])c2)=NO3)cc1 (stereo unspecified) | i | -21 | -15 | -14 | -13 | 6 | 4 | -3
Cc1ccc(C(=O)C2=C(O)C(=O)N(CCN3CCOCC3)C2c2ccccn2)o1 (stereo unspecified) | i | x | x | x | x | 5 | x | 12
Cc1cccnc1CCNC(=O)CCc1nnc(CCc2ccccc2)o1 | i | -10 | -5 | -12 | 3 | 0 | -7 | 4
CC(C)c1ccc(/C=C/C(=O)N2CCOCC2)cc1 | i | -3 | -5 | -10 | -38 | -2 | -6 | 20
CCc1cc2c(=O)c(-c3nc4ccccc4n3C)coc2c(CN2CCOCC2)c1O | i | 2 | -2 | -7 | -20 | 24 | x | 0
COc1cccc(C(=O)CC(=O)C(=O)Nc2ccc([N+](=O)[O-])cc2C)c1 | i | -3 | -1 | 2 | 0 | -4 | -13 | 0
CCN(CC)C(=O)N1CCN(c2c([N+](=O)[O-])c(=O)oc3ccccc23)CC1 | x | 1 | 2 | -5 | x | x | 0 | x
Cc1ccc(-n2nc3c(=O)n(CCCC(=O)N4CCC(C)CC4)nc(C)c3c2C)cc1 | i | 7 | 3 | -2 | 17 | 1 | -5 | -6
C=CCNC(=O)c1onc(CSc2ccc(C(C)C)cc2)c1C(=O)O | i | 0 | 3 | 38 | 1 | 5 | 3 | -4
O=C1CCCCc2sc(Br)c([N+](=O)[O-])c2N1 | i | -2 | 1 | 23 | 12 | 33 | -11 | 25
O=C(N/N=C/C=C/c1ccccc1)C1CC1c1ccccc1 (stereo unspecified) | i | 2 | -7 | -6 | -9 | 3 | -17 | -6
CCCCOc1cccc(C(=O)NC(=S)Nc2cccc(NC(=O)c3ccccc3Cl)c2)c1 | i | 4 | 3 | 15 | -12 | -8 | x | -10
CSc1nsc(SCc2ccc(F)cc2)n1 | i | 0 | 0 | -3 | x | 0 | -18 | 3
O=S1(=O)CCOCCN1Cc1ccc(Cl)cc1Cl | i | x | x | -3 | x | 6 | x | -4
CCNC(=O)CCC(=O)Nc1cc(Cl)ccc1C | i | 4 | 5 | -13 | x | 6 | -11 | -6
Cc1cc(C)nc(-n2ncc3c2CC(c2ccc(C(C)C)cc2)CC3=O)n1 (stereo unspecified) | i | 1 | -2 | 5 | 18 | 10 | x | 5
C[n+]1cccc2ccc3c(c21)OC(N)=C(C#N)C3c1ccccc1 (stereo unspecified) | i | 0 | 2 | 6 | 11 | 31 | -4 | 12
CC(C)NC(=O)N(C)C[C@H]1OCCCC[C@@H](C)Oc2ccc(N(C)C)cc2C(=O)N([C@H](C)CO)C[C@@H]1C | x | 3 | 5 | x | -1[16.7 µM] | x | 21 | x
Cc1ccc(S(=O)(=O)NCC(=O)OCC(=O)Nc2cccc(S(=O)(=O)N3CCOCC3)c2)cc1 | x | -4 | 0 | -4 | -13 | x | -3 | x
O=CN1CCN(C(=O)C(=O)c2cn(CC(=O)N3CCCCC3)c3ccccc23)CC1 | i | -1 | 3 | -6 | -22 | -4 | -8 | -2
COCCCNC(=S)N(CCCN(C)C)Cc1cc2cc3c(cc2[nH]c1=O)OCCO3 | i | -2 | -2 | -1 | -5 | 9 | -13 | 13
COC(C/C=C/[C@H](O)[C@@H](C)OCc1ccccc1)OC | + | -2 | 4 | -31 | -9 | x | -15 | x
CC[C@@H](C)CN1C(=O)N[C@@H](CCc2ccccc2)C(C(C)=O)=C1C | i | 2 | 1 | -2 | 5 | 6 | -18 | -8
O=C1CCC(C(=O)OCC(=O)Nc2ccccc2Br)=NN1 | x | 8 | 8 | x | i | x | -12 | x
O=S(=O)(c1ccc(Br)c2ccccc12)N1CCOCC1 | i | 0 | -1 | -14 | 6 | 7 | -8 | -2
Cc1cc(O)c(C(C)C)cc1NC1=NS(=O)(=O)c2ccccc21 | i | 1 | -1 | -10 | -34 | 0 | -15 | 4
CC1CN(S(=O)(=O)c2ccc(C(=O)Nc3nnc(-c4ccc5c(c4)CCCC5)o3)cc2)CC(C)O1 (stereo unspecified) | i | -8 | -11 | 19 | 23 | 13 | -14 | 19
O=C(c1ccc(=O)oc1)N1CCOCC1 | i | 1 | 3 | -7 | x | 66* | -12 | 88* | eIF4H inh retest=108*;PABP FP inh retest=95*
O=C(CN1C(=O)/C(=C\c2ccco2)SC1=S)Nc1ccc(O)cc1C(=O)O | i | 25 | 36 | -8 | -4 | 117* | -11 | 79* | eIF4H inh retest=85*;PABP FP inh retest=89*
CC(C)C(=O)N(Cc1cc2ccccc2[nH]c1=O)C(C)C | i | -3 | 6 | -2 | -47 | -2 | -16 | -7
Cc1c(NC(N)=O)c(=O)n(-c2ccccc2)n1C | i | -2 | 4 | -4 | 0 | 3 | x | 10
CC12COC3(C(=O)Nc4cccnc4)CC1CCC32C (stereo unspecified) | i | -4 | 1 | -9 | -12 | 2 | -3 | -1
CN1CCN(c2ncnc3c2ncn3[C@H]2CN(Cc3ccc(F)cc3)C[C@@H](CO)O2)CC1 | x | -1 | 2 | x | -18 | x | 3 | x

(further entries)
SMILES | Rce1 inhib | MT1-MMP act inh | MT1-MMP act inh RFP | CSC inhib | Env fusion inh | PABP FP inh | UUG fidelity | eIF4H inh | others
CCOC(=O)C1(Cc2ccccc2C(F)(F)F)CCN(CC2CC2)CC1 | i | -3 | 5 | 48 | -2 | 0 | -2 | -2
COc1ccc(C(=O)NC(C(=O)NCCc2ccc3c(c2)OCCO3)C(C)C)cc1 (stereo unspecified) | i | x | x | -9 | -7 | 2 | x | -3
CC1CN(Cc2ccccc2)C(C)CC1O (stereo unspecified) | i | 3 | 6 | -10 | -2 | -4 | -6 | -1
CSc1ccc(CCNC(=O)CCc2nnc3ccc(N4CCC5(CC4)OCCO5)nn23)cc1 | i | -2 | 2 | 8 | -3 | 12 | 12 | -2
O=C(COc1cccc2ccccc12)NCc1cccnc1 | i | 0 | -3 | 0 | 9 | -10 | x | -1
O=C1COc2ccc(OCc3ccc(F)cc3)cc21 | i | -5 | 5 | 12 | x | -6 | -17 | -3
Cn1c(=O)c2c(nc(SCCN3CCOCC3)n2Cc2ccccc2)n(C)c1=O | i | 2 | 1 | -7 | x | 17 | -5 | -5
Cc1ccc2cccc(OCc3ccc(Br)cc3)c2n1 | i | 1 | 1 | 9 | 16 | -11 | -19 | -11
O=C(O)C1CCN(S(=O)(=O)c2ccc(N3CCOCC3)c([N+](=O)[O-])c2)CC1 | i | 0 | -1 | -4 | -3 | -10 | -6 | 6

An excerpt from above in order of molar mass, largest number first:
SMILES | Rce1 inhib | MT1-MMP act inh | MT1-MMP act inh RFP | CSC inhib | Env fusion inh | PABP FP inh | UUG fidelity | eIF4H inh | others
CCOC(=O)C1(Cc2ccccc2C(F)(F)F)CCN(CC2CC2)CC1 | i | -3 | 5 | 48 | -2 | 0 | -2 | -2
Cc1ccc2cccc(OCc3ccc(Br)cc3)c2n1 | i | 1 | 1 | 9 | 16 | -11 | -19 | -11
O=C1COc2ccc(OCc3ccc(F)cc3)cc21 | i | -5 | 5 | 12 | x | -6 | -17 | -3

Bioassay records: PubChem, several laboratories
